GLA inh pH 4.5 – alpha-galactosidase A (human) inhibition, pH 4.5; P06280; purified enzyme, 4-MU-alpha-Gal fluorescence, pH 4.5; activity change, negative = inhibition, % at 105 µM; 230,000 tested, under 10 active; inconclusive = small, poorly fitted or top-dose-only inhibition, or a rising curve; inactive = flat fitted curve, though single readings scatter; no compound was filed as active;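 note: 0% = full activity with enzyme and -100% = basal without enzyme; dose as in the result columns while the protocol names 77 µM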
miR-21 reporter – raises the signal of a miR-21 reporter; HeLa miR-21 FLuc reporter, luciferase, 48 h; Potency, µM (series often up to 38.3 µM), for the others: at the top dose reporter change, positive = more light; 340,000 tested, under 10 active; active = well fitted rising curve with a large enough effect; inconclusive = small, poorly fitted or top-dose-only effect; inactive = no such curve, though single readings can be large or run the other way;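 note: % of control where 0% means no effect; miR-21 action dims this reporter so a rising signal means less miR-21 action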
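Luminescence from a firefly luciferase reporter carrying a miR-21 binding site downstream, stably expressed under a CMV promoter in HeLa cells that make miR-21 endogenously, reports miRNA modulation after 48 h compound exposure up to approximately 40uM final.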
Rango dissoc inh – prevents RanGTP from dissociating the Rango-importin beta complex; Biochemical FRET Rango-importin beta, RanGTP-induced dissociation; Potency, µM (doses to about 46.1 µM), without a hit: at the top dose activity change, negative = inhibition; 0.071% of 340,000 active; active means falling FRET ratio curve, often poorly fitted, with flat reads before Ran was added; inconclusive means other falling curves, or compound fluorescence or quenching; inactive means flat or rising ratio curve;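 note: potency is the fitted concentration of half-maximal effect; % of control where 0% means no effect; nearly all actives have a fitted effect of over 45% in size; -100% = wells without RanGTP and RCC1; the record marks most hits as doubtful in a second field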
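FRET read at 45 min, room temperature: inhibitors block the CFP/YFP signal rise when RanGTP (0.6 uM Ran, 2 mM GTP, 0.2 uM RCC1) frees Rango (0.1 uM) from importin beta (0.25 uM). Pre-read after 5 min compound exposure flags interference.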
Rango complex inh – prevents formation of the Rango-importin beta complex. Q14974. Rango CFP/YFP FRET sensor + importin beta, 45 min. Potency, µM (titrated, usually from 92.2 µM), without a hit: at the highest dose inhibition of complex formation. 0.031% of 340,000 active. AID 540263; active = rising FRET ratio curve, often small or poorly fitted; inconclusive = mostly compound fluorescence or quenching in the first reads; inactive = flat curves in all reads;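 note: potency is the fitted concentration of half-maximal effect; 0% = DMSO wells and 100% = buffer wells lacking importin beta; nearly all actives have a fitted effect of over 15% in size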
Target sequence (Q14974 whole entry, looked up): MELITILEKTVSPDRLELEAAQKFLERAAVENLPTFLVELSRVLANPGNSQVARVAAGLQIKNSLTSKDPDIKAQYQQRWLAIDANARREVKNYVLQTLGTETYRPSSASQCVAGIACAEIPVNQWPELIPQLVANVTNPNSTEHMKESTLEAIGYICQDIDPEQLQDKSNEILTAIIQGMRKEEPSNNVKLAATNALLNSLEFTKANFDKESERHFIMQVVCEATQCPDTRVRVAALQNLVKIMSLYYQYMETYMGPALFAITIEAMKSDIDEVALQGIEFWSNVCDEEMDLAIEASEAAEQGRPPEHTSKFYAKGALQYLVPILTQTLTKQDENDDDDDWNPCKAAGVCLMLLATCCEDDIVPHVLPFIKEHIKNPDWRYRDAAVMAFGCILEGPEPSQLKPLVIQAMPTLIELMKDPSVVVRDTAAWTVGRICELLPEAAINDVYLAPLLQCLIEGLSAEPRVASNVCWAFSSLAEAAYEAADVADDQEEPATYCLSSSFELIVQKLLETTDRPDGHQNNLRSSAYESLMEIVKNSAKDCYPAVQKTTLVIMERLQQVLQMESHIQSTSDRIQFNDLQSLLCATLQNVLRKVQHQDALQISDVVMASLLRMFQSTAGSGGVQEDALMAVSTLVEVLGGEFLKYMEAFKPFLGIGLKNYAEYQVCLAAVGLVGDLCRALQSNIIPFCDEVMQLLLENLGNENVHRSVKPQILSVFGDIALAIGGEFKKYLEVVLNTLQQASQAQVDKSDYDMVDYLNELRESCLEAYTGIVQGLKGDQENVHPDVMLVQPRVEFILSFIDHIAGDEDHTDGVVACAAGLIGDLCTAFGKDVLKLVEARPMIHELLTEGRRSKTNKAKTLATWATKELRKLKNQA
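Inhibition scored from the CFP 486 nm/YFP 530 nm FRET ratio 45 min after adding 0.125 microM importin beta to 50 nM Rango biosensor preincubated 5 min with compound (room temperature, PBS with DTT, Tween-20, BSA). No-importin wells as positive control.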
* hit, by the source's call; ? = inconclusive; / = no result given. A portion of the library; rates above refer to the full screens.

SMILES	GLA inh pH 4.5	miR-21 reporter	Rango dissoc inh	Rango complex inh
CCc1nnc(NC(=O)CN2CCN(Cc3ccc(F)cc3)CC2)s1	/	-1%	13%	-3.5%
Cc1cc(-c2nnc(CCC(=O)NC(c3ccccc3)c3ccccc3)o2)no1	2	-25%	-11%	?
Cc1ccc(S(=O)(=O)N(C)C)cc1NC(=O)CCCNC(=O)c1ccc(Cl)cc1	/	6%	-23%	-0.9%
CCOCCCNC(=O)c1ccc(C2SCC(=O)N2Cc2ccccc2)cc1 (stereo not given)	/	5%	-1%	-1.2%
O=C1C2C3C=CC(CC3)C2C(=O)N1/N=C/c1c(O)ccc2ccccc12 (stereo not given)	-13	3%	?	?
CN(C(=O)C1CCCN(S(=O)(=O)c2cccc([N+](=O)[O-])c2)C1)C1CCS(=O)(=O)C1 (stereo not given)	7	0%	-3%	0.2%
COc1ccc(S(=O)(=O)N2CCN(C(=O)/C=C/c3ccco3)CC2)cc1	/	/	5%	-1.7%
COc1cc(NC(=O)Cn2ccsc2=N)c(C)cc1[N+](=O)[O-]	11	6%	6%	1.9%
COc1ccc(C)c2sc(N(CCCN(C)C)C(=O)c3ccc4c(c3)OCCO4)nc12	/	/	-1%	2.6%
CN(C)CCN(C(=O)c1cccc2ccccc12)c1nc2cc3c(cc2s1)OCO3	/	7%	6%	-0.6%
CC1CC(c2ccccc2)n2nc(NC(=O)c3ccco3)nc2N1 (stereo not given)	4	1%	-14%	0.0%
CSc1ncc(CO)n1Cc1ccccc1	7	2%	-3%	0.1%
O=C(COC(=O)C12CC3CC(CC(C3)C1)C2)N1CCN(S(=O)(=O)c2ccccc2)CC1	-9	-4%	-11%	-4.1%
O=C(O)c1ccccc1C(=O)Nc1ccc(S(=O)(=O)NC2CCCCC2)cc1	0	-7%	12%	6.0%
COc1ccccc1NC(=O)N1CCCC1C(=O)NC1CCCCC1 (stereo not given)	-5	-3%	7%	0.9%
Cc1cc(C)cc(NC(=O)C2C3C=CC4(O3)C2C(=O)N(CCCN2CCCCC2)C4C(=O)NC2CCCCC2)c1 (stereo not given)	/	0%	1%	6.0%
CCn1c(C)cc(/C=C2\NC(=O)N(Cc3ccc(Cl)cc3)C2=O)c1C	-4	1%	?	-9.2%
COc1ccc(C(=O)NCCc2cc3ccc(C)c(C)c3[nH]c2=O)cc1OC	6	-1%	-13%	-0.2%
COC(=O)C1=C(C)NC(=O)NC1c1ccccc1Cl (stereo not given)	/	0%	-15%	0.1%
CN(C(=O)COC(=O)CNS(=O)(=O)/C=C/c1ccccc1)C1CCS(=O)(=O)C1 (stereo not given)	6	-1%	-4%	0.2%
COc1ccc(NS(=O)(=O)c2ccc(C)c(NC(=O)CNC(=O)c3ccco3)c2)cc1	/	/	-24%	-2.6%
C/C(=N\N(c1ccccc1)c1ccccc1)c1ccc(N)cc1	/	/	-6%	-3.2%
CCC(=O)Nc1ccccc1C(=O)OCC(=O)Nc1ccc(S(N)(=O)=O)cc1	1	-3%	-9%	-1.7%
CC(C)n1cnnc1SCC(=O)Nc1ccc(N2CCCCC2)cc1	/	/	46%	-3.8%
CC(Sc1nc(N)c(NC(=O)c2ccc(Br)o2)c(=O)[nH]1)C(=O)O (stereo not given)	/	0%	-13%	4.1%
Cc1sc(NC(=O)c2cccnc2)nc1-c1ccccc1	-4	-1%	-1%	0.4%
CCOC(=O)CSc1nnc(CNC(=O)c2cccc(C)c2)n1C	-9	-3%	21%	0.9%
COc1ccc(-c2csc3[nH]c(=S)n(-c4ccccc4)c(=O)c23)cc1OC	-2	-7%	13%	0.6%
CCc1nccn1CCC(=O)N1CCCC(N2CCN(c3ccccc3F)CC2)C1 (stereo not given)	/	1%	17%	1.9%
Cn1c(=O)c2c(nc(Br)n2CCSc2nc3ccccc3o2)n(C)c1=O	/	2%	1%	-2.6%
COc1ccc(S(=O)(=O)N2CCC(C(=O)Nc3nccs3)CC2)cc1	/	-48%	2%	-1.0%
CCCCCC(=O)Nc1cc(N(C)C)nc2ccccc12	10	8%	14%	-3.2%
Cn1c2ccccc2c2cc(/C=N/NC(=O)c3cc(O)ccc3O)ccc21	/	0%	-10%	?
CC(C)OCCCNC(=O)CN1C(=O)CC(C)(C)S(=O)(=O)c2ccccc21	-6	-2%	-7%	-1.5%
N#C/C(=C\c1ccccc1)C(=O)NCCN1CCOCC1	-18	-3%	5%	-1.9%
O=C(Nc1nccs1)C1CC(=O)N(c2ccccc2)C1 (stereo not given)	/	-1%	3%	1.5%
CCC(C)NC(=O)c1ccc(NC(=O)CC2SC(N3CCCCC3)=NC2=O)cc1 (stereo not given)	/	/	-1%	3.9%
Cc1cc(-c2nnnn2-c2ccc(C(F)(F)F)cc2)no1	-7	2%	-17%	0.5%
CCOC(=O)C1CCN(C(=O)CCS(=O)(=O)c2ccc3c(c2)CC(C)N3C(=O)CC)CC1 (stereo not given)	6	-5%	1%	0.7%
CCn1c(C(C)NC(=O)c2ccc(C)cc2)n[nH]c1=S (stereo not given)	-2	-12%	-16%	2.0%

3 of the entries above in order of the Rango complex inh value, lowest first.
SMILES	GLA inh pH 4.5	miR-21 reporter	Rango dissoc inh	Rango complex inh
CCn1c(C)cc(/C=C2\NC(=O)N(Cc3ccc(Cl)cc3)C2=O)c1C	-4	1%	?	-9.2%
COc1ccc(NS(=O)(=O)c2ccc(C)c(NC(=O)CNC(=O)c3ccco3)c2)cc1	/	/	-24%	-2.6%
COc1cc(NC(=O)Cn2ccsc2=N)c(C)cc1[N+](=O)[O-]	11	6%	6%	1.9%

Remaining list, next part
SMILES	GLA inh pH 4.5	miR-21 reporter	Rango dissoc inh	Rango complex inh
Cc1nc2ccccc2n1S(=O)(=O)N(C)C	5	-4%	2%	-0.2%
Cc1ccccc1CN(C)C(=O)CNC(=O)c1ccc2ccccc2c1	/	-13%	3%	?
COC(=O)CNC(c1ccccc1)c1cc(Br)ccc1NS(=O)(=O)c1ccccc1 (stereo not given)	-4	-7%	-13%	-2.8%
CCOC(=O)c1c(NC(=O)CS(=O)(=O)c2cn(CC)c3ccccc23)sc2c1CCCCC2	-3	-8%	-10%	0.7%
CC(C)NC(=O)C(=O)Nc1cc2c3c(c1)C(C)C(=O)N3CCC2 (stereo not given)	/	6%	-17%	-1.1%
COc1c(C)cc(C(=O)C2CCCN(C(=O)Cn3ccc(C)n3)C2)cc1C (stereo not given)	0	-7%	6%	-2.0%
C/C(CC(=O)NCc1ccco1)=N\NC(=O)C(c1ccccc1)c1ccccc1	3	-2%	-1%	1.5%
COc1cc(NS(=O)(=O)c2ccc(NC(=O)CSC3=NCCS3)cc2)nc(OC)n1	-2	-8%	/	/
CCOc1cc2nc(-c3ccc(OC)c(OC)c3)nc(N3CC(C)OC(C)C3)c2cc1OC (stereo not given)	-2	-6%	/	/
CC1(C)CC(=O)C=C(NCc2ccc(C(=O)O)cc2)C1	-7	4%	1%	-1.8%
Cc1cc(Br)ccc1NC(=O)CN(C)C(=O)c1ccc(-n2cncn2)c([N+](=O)[O-])c1	/	/	1%	-2.1%
CC(C)N1C(=O)C2ON(c3ccccc3)C(c3cccs3)C2C1=O (stereo not given)	0	-6%	8%	6.3%
[O-][n+]1ccccc1/C=C/c1ccccc1	/	/	-4%	1.2%
CCCCCC(=O)Nc1ccc(S(=O)(=O)NC2=NCCCCC2)cc1	/	/	7%	-1.0%
CN(Cc1ccno1)Cc1cn(C)nc1-c1ccc(Oc2ccccc2)cc1	-5	6%	16%	1.9%
CCCCCn1nc(C(=O)N(CCOC)c2c(N)n(CCCC)c(=O)[nH]c2=O)c2ccccc2c1=O	/	/	5%	-3.2%
Cc1cccc(CCNC(=O)CC2C(=O)NCCN2CC2CCCCC2)n1 (stereo not given)	1	-2%	-14%	2.7%
COc1ccc(-c2oc3ccccc3c2C(=O)OCc2ccc([N+](=O)[O-])cc2)cc1	/	-3%	2%	?
CC1CCCC(NC(=O)c2cccc(S(=O)(=O)N3CCN(c4ccccc4)CC3)c2)C1C (stereo not given)	/	/	7%	0.0%
CCOC(=O)c1cnn(-c2ccccc2)c1-n1cccc1C(=O)C(=O)Nc1ccc(OC)cc1	-3	-4%	8%	6.6%

Among those listed so far, these contain a COOH group.
SMILES	GLA inh pH 4.5	miR-21 reporter	Rango dissoc inh	Rango complex inh
O=C(O)c1ccccc1C(=O)Nc1ccc(S(=O)(=O)NC2CCCCC2)cc1	0	-7%	12%	6.0%
CC(Sc1nc(N)c(NC(=O)c2ccc(Br)o2)c(=O)[nH]1)C(=O)O (stereo not given)	/	0%	-13%	4.1%
CC1(C)CC(=O)C=C(NCc2ccc(C(=O)O)cc2)C1	-7	4%	1%	-1.8%

Later entries.
SMILES	GLA inh pH 4.5	miR-21 reporter	Rango dissoc inh	Rango complex inh
Cn1/c(=N/NC(=O)c2ccccc2Br)sc2ccccc21	5	-52%	-14%	3.3%
Cc1cnc(CN(C)C(=O)C2CCC(=O)N(CCc3cccc(F)c3)C2)[nH]1 (stereo not given)	/	3%	24%	2.2%
O=C(COC(=O)c1ccc(F)cc1F)NCc1ccc2c(c1)OCO2	/	/	-7%	-1.5%
O=C(Nc1cc(S(=O)(=O)Nc2ccc(Cl)cc2)ccc1N1CCCCC1)c1ccc(F)cc1	-9	14%	-7%	-1.5%
Cc1cc2nc(/C=C/c3nc4cc(C)c(C)cc4[nH]3)[nH]c2cc1C	-5	21%	-13%	?
CCOC(=O)C1=C(C)NC(=O)NC1c1ccc([N+](=O)[O-])o1 (stereo not given)	1	-5%	-7%	7.2%
CC(=O)c1ccc(NC(=O)CCSCCC(=O)Nc2ccc(C(C)=O)cc2)cc1	-11	-3%	0%	1.7%
COc1ccc(N2C(=O)CC(SCCc3nc4ccccc4[nH]3)C2=O)cc1 (stereo not given)	0	0%	-11%	-0.1%
COc1ccc(CCN(C(=O)C(F)(F)F)C(C(=O)NC2CCCC2)c2cccs2)cc1OC (stereo not given)	-12	1%	-7%	-1.3%
CC(C)(C)c1cc(C(C)(C)C)cc(S(=O)(=O)CCc2ccccn2)c1	1	-1%	3%	3.1%
CC(=O)Nc1ccc(-c2csc(NC(=O)C3CC(=O)N(c4ccc5c(c4)OCCO5)C3)n2)cc1 (stereo not given)	-5	2%	50%	4.6%
CN(CC(=O)NCc1ccncc1)S(=O)(=O)c1ccc(Br)cc1	/	0%	17%	-2.2%
COc1ccccc1NC(=O)N1CCC(c2nc3cc(C)c(C)cc3[nH]2)CC1	5	17%	11%	0.9%
CCCCC(=Nc1ccc(N)cc1)C1=C(O)C(C(=O)OC)C(C)(C)CC1=O (stereo not given)	5	-15%	-1%	?
Cc1noc(/C=C/N(C)C)c1S(=O)(=O)N1CCN(c2ccc(F)cc2)CC1	/	-2%	1%	?
Cc1[nH]n(-c2cccc(Cl)c2)c(=O)c1-c1ccc(Cl)cc1	-7	22%	0%	-0.9%
O=C(N/N=C/c1c[nH]c2ccccc12)c1ccn(Cc2ccc(Cl)cc2)n1	-1	1%	0%	0.1%
COc1ccc(CNC(=O)COc2ccccc2C(=O)c2cnn(-c3ccccc3)c2)cc1OC	/	/	-1%	?
Cc1ccc(C(NC(=O)c2ccccc2)C(Cl)(Cl)Cl)cc1 (stereo not given)	12	20%	-2%	-0.6%
CS(=O)(=O)N1CCN(c2ccc(NC(=O)Cc3ccccc3)cc2)CC1	-7	-4%	-9%	1.0%
CCN1C(=O)/C(=C/c2ccc(C)s2)SC1=Nc1ccc(OC)cc1	-1	-5%	-2%	0.8%
CN1CCN(Cc2cccc(Oc3ccc(Cl)cc3)c2)CC1	0	-23%	-5%	-2.2%
CN(Cc1ccc(Cl)s1)C(=O)CN1C(=O)N(C)C2(CCCCC2)C1=O	/	/	-6%	-0.2%
COC(=O)c1c(C)oc2ccc(N(C(=O)Oc3ccccc3)S(=O)(=O)c3ccc(Cl)c([N+](=O)[O-])c3)cc12	9	1%	14%	-1.2%
Cc1ccc2c(COC(=O)CNC(=O)c3ccco3)cc(=O)oc2c1C	/	/	4%	1.3%
CCCCN1CN(S(=O)(=O)c2cccs2)c2nc3ccccc3nc21	-6	-21%	/	/

Assay outcomes from PubChem BioAssay.
